gsp ag – qHTS for Agonist of gsp, the Etiologic Mutation Responsible for Fibrous Dysplasia/McCune-Albright Syndrome: qHTS | gsp mutant cells, cAMP HTRF, 30 min; control for the full effect not named in the record | Potency, µM (top dose mostly 76.9 µM), for the others: top-dose activation (cAMP increase), actives largely listed as activators | 0.13% of 340,000 active; active = well fitted activation curve with a large enough effect; inconclusive = small, poorly fitted or top-dose-only effect, or another doubt; inactive = no such curve, though single readings can be large or run the other way; cell line not stated here;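 further: phosphodiesterase inhibitor Ro 20-1724 added with compounds to block cAMP breakdown; potency means the concentration at half of the fitted maximal effect; nearly all actives have a fitted effect of over 60% in size; about a fifth of the inactives were tested at one dose only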
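Cells in DMEM/10% FBS with G418 were pretreated with compounds in DMSO plus […] (300 uM stock) for 30 min at 37C. cAMP was measured by HTRF (cAMP-d2 plus anti-cAMP antibody-K) after 30 min at room temperature.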
gsp antag – qHTS for Antagonists of gsp, the Etiologic Mutation Responsible for Fibrous Dysplasia/McCune-Albright Syndrome: qHTS; gsp-mutant cells, cAMP HTRF, 30 min; control for the full effect not named in the record; Potency, µM (top dose mostly 76.9 µM), without a hit: top-dose activity change, negative = inhibition, usual class: inhibitors; 0.4% of 340,000 active; AID 624288, 2012; active = falling curve of any shape with a large fitted effect; inconclusive = falling curve, mostly with a smaller effect; inactive = flat or rising curve; cell line not stated here;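 further: intracellular cAMP measured with PDE inhibitor Ro 20-1724 present during compound exposure; potency means the concentration at half of the fitted maximal effect; on the % scale 0 is the no-effect control and ±100 the full control effect; nearly all actives have a fitted effect of over 65% in size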
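HTRF cAMP read-out (cAMP-d2 plus anti-cAMP antibody-K in lysis buffer, 30 min RT). Before lysis, cells are exposed to compounds with […] for 30 min at 37C in DPBS containing Ca/Mg, BSA and Tween 20.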
Sfp inh – qHTS Assay for Inhibitors of Bacillus subtilis Sfp phosphopantetheinyl transferase (PPTase); Biochemical Sfp PPTase activity, qHTS; 3.5% of 310,000 active; Potency, µM, inactives show max response, negative = inhibition, usual class: inhibitors; active means well fitted inhibition curve with a large enough effect; inconclusive means small, poorly fitted or top-dose-only effect, or another doubt; inactive means no such curve, though single readings can be large or run the other way;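 further: the enzyme is Sfp with the accession as filed and its product quenches rhodamine fluorescence; potency means the concentration at half of the fitted maximal effect; 0% = enzyme reaction without inhibitor and -100% = no enzyme wells; top concentration of the series not given in the record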
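Step 1, compound plus 15 nM Sfp-PPTase, 15 min, room temperature. Step 2, add rhodamine-CoA (5 uM) and BHQ-2-YbbR (12.5 uM). Step 3, read 525/598 nm fluorescence at 0 and 30 min.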
CtBP-E1A blk – qHTS Assay for Inhibitors of the CtBP/E1A Interaction; CtBP / adenovirus E1A interaction (AlphaScreen); AlphaScreen GST-E1A/His-CtBP binding, 1536-well; stronger effect = lower value; control for the full effect not named in the record; activity change, % (no concentration beside the values); 0.49% of 340,000 active; AID 651724, 2012; in the data active means activity change below about -65%; inconclusive means about -30% to -65%; inactive means above about -30%; further: on the % scale 0 is the no-effect control and ±100 the full control effect; compound concentration not given in the record
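Steps: dispense buffer (Tris pH 8.0, NaCl 300 mM, TCEP 1 mM, BSA, Tween 20); add 5X protein mix (GST-E1A, His-CtBP, 125 nM each); pin 23 nL compound; 2 h at 37 °C, dark; add 5X beads (50 ug/mL); 1 h; read.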
Menin MLL FP FL – qHTS Assay for Inhibitors Targeting the Menin-MLL Interaction in MLL Related Leukemias: Competition With Fluorescein Labeled MLL-derived Peptide; Fluorescence polarization, fluorescein-MLL peptide displacement from menin; FP activity change, % at 61.4 µM; 290,000 tested, under 10 active; AID 1766, 2009; inconclusive = falling polarisation curve, or a change in total fluorescence; inactive = total fluorescence flat and polarisation flat or rising; no compound was filed as active; the % refers to the polarisation; negative = inhibition;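 further: % of control where 0% means no effect; inhibitors lower the polarisation; unlabelled MLL peptide was the positive control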
ClpP mod – qHTS Assay for Activators of ClpP; ATP-dependent Clp protease proteolytic subunit (Bacillus subtilis (strain 168)), P80244; purified B. subtilis ClpP, FRET peptide cleavage, 20 min; Potency, µM (titrated, usually from 57.5 µM), inactives show at the top dose activity change, negative = active; 1.9% of 340,000 active; AID 651965, 2013; active = well fitted falling curve with a large enough effect; inconclusive = small, poorly fitted or top-dose-only effect; inactive = no such curve, though single readings can be large or run the other way; further: potency means the concentration at half of the fitted maximal effect; the source files actives as falling curves though it sought activators and does not explain the sign; nearly all actives have a fitted effect of over 65% in size; many hits overshoot -100%
Target sequence (P80244 whole entry, looked up): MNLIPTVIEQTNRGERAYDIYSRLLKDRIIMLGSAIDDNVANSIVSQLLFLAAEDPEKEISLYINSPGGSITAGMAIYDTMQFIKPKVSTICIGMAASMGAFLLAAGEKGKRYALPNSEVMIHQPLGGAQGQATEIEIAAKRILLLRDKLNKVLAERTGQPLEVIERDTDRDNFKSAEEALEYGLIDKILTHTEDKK
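Buffer: 100 mM Tris/HCl pH8, 100 mM KCl, 0.05% low protease BSA, 2.5% glycerol, 0.01% Tween-20. ClpP 10 microg/mL final; 20 min RT; delta FRET normalized to ADEP and DMSO controls.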
TRPV1 potentiator – HTS Assay for Compounds that Act as Potentiators of the Vanilloid Receptor 1 | Transient receptor potential cation channel subfamily V member 1 (Homo sapiens), Q8NER1 | TRPV1-expressing cells, Fluo-8 calcium influx, capsaicin EC20 potentiation; host cell line not named in the record; control for the full effect not named in the record | potentiation, % at 8.33 µM | 0.02% of 320,000 active | AID 540277, 2011; active means potentiation above 80%; inconclusive means 30% to 80%; inactive means below 30%; further: 0% is about no effect
Target sequence (Q8NER1 whole entry, looked up): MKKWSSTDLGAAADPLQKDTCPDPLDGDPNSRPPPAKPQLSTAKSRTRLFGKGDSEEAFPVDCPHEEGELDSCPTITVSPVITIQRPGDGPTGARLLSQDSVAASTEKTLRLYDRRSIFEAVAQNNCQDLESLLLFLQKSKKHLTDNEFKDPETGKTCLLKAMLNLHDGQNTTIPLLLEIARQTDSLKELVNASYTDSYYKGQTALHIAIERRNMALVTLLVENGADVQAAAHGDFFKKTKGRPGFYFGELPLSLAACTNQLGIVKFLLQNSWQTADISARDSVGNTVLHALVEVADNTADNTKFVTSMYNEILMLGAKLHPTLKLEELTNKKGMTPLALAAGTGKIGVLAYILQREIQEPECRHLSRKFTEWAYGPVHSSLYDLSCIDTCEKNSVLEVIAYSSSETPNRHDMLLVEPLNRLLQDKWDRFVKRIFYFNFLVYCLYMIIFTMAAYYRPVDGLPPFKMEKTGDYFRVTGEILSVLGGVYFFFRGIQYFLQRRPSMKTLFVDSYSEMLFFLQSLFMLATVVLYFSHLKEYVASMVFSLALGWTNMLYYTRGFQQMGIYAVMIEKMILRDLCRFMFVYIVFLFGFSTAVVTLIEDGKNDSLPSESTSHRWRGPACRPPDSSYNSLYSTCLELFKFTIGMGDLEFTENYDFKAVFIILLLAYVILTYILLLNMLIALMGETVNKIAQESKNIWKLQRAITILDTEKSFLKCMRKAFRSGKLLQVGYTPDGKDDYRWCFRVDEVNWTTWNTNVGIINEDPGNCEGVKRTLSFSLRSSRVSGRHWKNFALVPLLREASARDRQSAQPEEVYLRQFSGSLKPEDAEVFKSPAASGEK
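Fluo-8 calcium influx in TRPV1-expressing cells, kinetic read (ex 480/em 520 nm). Compound added and read 3 min for agonist activity, followed by capsaicin at EC20 final and 2 min further read for enhancement.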
* marks the source's active call; other numbers are inactive results; u = inconclusive; x = not tested or not shown; [ ] = dose if it differs, or a comment.

SMILES	gsp ag	gsp antag	Sfp inh	CtBP-E1A blk	Menin MLL FP FL	ClpP mod	TRPV1 potentiator
COc1ccccc1NC(=O)Cn1c(=O)c(N(C)C)c(N)n(C)c1=O	3%[15.4 µM]	5%	12%	2	-3.7	-0.5%	7
Cc1ccnc(NC(=O)C(C)N2C(=O)c3ccccc3S2(=O)=O)c1 (configuration not stated)	4%[15.4 µM]	-6%	x	0	x	1.2%	13
Cc1ccc(-n2c(=O)c3c4c(sc3n3c(=S)[nH]nc23)CCC4)cc1	-1%	-19%	-2%	x	1.3	0.7%	x
COc1ccc(NC(=O)CN(C)C(=O)c2ccc3c(c2)NC(=O)CS3)cc1	-11%	10%	x	5	x	0.4%	-13
O=C(CSc1nnc(Cc2ccccc2)o1)c1ccc2c(c1)OCO2	12%[15.4 µM]	2%	x	8	x	x	-25
COc1ccc(N(C(=O)C(C)C)S(=O)(=O)c2cccs2)cc1	2%	-5%	0%	18	-1.2	0.4%	-16
Cc1nn(Cc2ccccc2)c(Cl)c1C(=O)OCC(=O)NC(=O)NC12CC3CC(CC(C3)C1)C2	3%[15.4 µM]	11%	2%	11	-0.5	0.2%	4
CN(c1ccc(C(=O)NCC2CCCO2)cc1)S(=O)(=O)c1ccc(Cl)cc1 (configuration not stated)	-27%	x	x	1	x	1.0%	x
CCNc1c(NS(=O)(=O)c2ccc(OC)cc2)c(=O)oc2ccccc12	-37%[inhibitor]	-5%	5%	4	-0.2	x	5
COC(=O)C1=C(C)N(C)C(=O)NC1c1cccc2ccccc12 (configuration not stated)	7%[15.4 µM]	1%	17%	0	-0.3	-0.1%	3

Full records from above. Screens in order: gsp ag	gsp antag	Sfp inh	CtBP-E1A blk	Menin MLL FP FL	ClpP mod	TRPV1 potentiator
COC(=O)C1=C(C)N(C)C(=O)NC1c1cccc2ccccc12 (configuration not stated) as listed: 7%[15.4 µM]	1%	17%	0	-0.3	-0.1%	3
Cc1ccc(-n2c(=O)c3c4c(sc3n3c(=S)[nH]nc23)CCC4)cc1 as listed: -1%	-19%	-2%	x	1.3	0.7%	x

New compounds follow.
SMILES	gsp ag	gsp antag	Sfp inh	CtBP-E1A blk	Menin MLL FP FL	ClpP mod	TRPV1 potentiator
O=C(COC(=O)CCSc1ccc(Cl)cc1)NCc1ccccc1	17%[15.4 µM]	-15%	-6%	12	5.6	-0.5%	-16
Cn1c(Nc2ccccc2)cc(=O)n(C)c1=O	-24%	1%	9%	x	-14	-0.4%	1
O=C(/C=C/c1cccc(Br)c1)N1CCN(c2ccccn2)CC1	6%[15.4 µM]	-24%	0%	-1	1.0	0.6%	-8
COc1ccc(NS(=O)(=O)c2cc(NC(=O)C(CC(C)C)NC(N)=O)ccc2N2CCOCC2)cc1 (configuration not stated)	-17%	-18%	x	0	x	2.1%	x
CN(Cc1c(C(=O)N/N=C/c2cccc(F)c2)nnn1-c1nonc1N)c1ccccc1	-2%	6%	21%	x	-3.0	-2.0%	-3
Cc1cc(C)c(S(=O)(=O)N2CCCCC2)c(C)c1-n1ncnn1	-26%	-8%	21%	7	0.4	-0.4%	-1
O=C(O)C1CC1c1ccc(Br)cc1 (configuration not stated)	30%	-22%	0%	6	-2.7	-1.2%	-1
COc1ccc(C2C(C(=O)c3ccco3)=C(O)C(=O)N2CCCn2ccnc2)c(OC)c1 (configuration not stated)	1%[15.4 µM]	7%	-19%	0	u	-2.0%	-6
COc1ccc(C(C)=O)cc1COC(=O)c1cc(=O)c2ccccc2o1	17%[15.4 µM]	-18%	-5%	18	-1.8	0.3%	9
O=S(=O)(c1ccc2c(c1)OCCO2)N1CCN(c2cccc(Cl)c2)CC1	17%	-6%	11%	-7	3.3	-1.1%	u

Looked up one by one from above:
SMILES	gsp ag	gsp antag	Sfp inh	CtBP-E1A blk	Menin MLL FP FL	ClpP mod	TRPV1 potentiator
O=C(CSc1nnc(Cc2ccccc2)o1)c1ccc2c(c1)OCO2	12%[15.4 µM]	2%	x	8	x	x	-25
Cc1cc(C)c(S(=O)(=O)N2CCCCC2)c(C)c1-n1ncnn1	-26%	-8%	21%	7	0.4	-0.4%	-1

Following part:
SMILES	gsp ag	gsp antag	Sfp inh	CtBP-E1A blk	Menin MLL FP FL	ClpP mod	TRPV1 potentiator
COc1ccc(OCCOC(=O)CNC(=O)c2ccc(F)cc2)cc1	-20%	x	x	7	x	0.8%	x
O=S1(=O)c2ccc(Br)cc2N2CCC[C@@H]2CN1C1CC1	x	-21%	x	-14	x	-2.3%	x
CC(NS(=O)(=O)c1ccc(Br)cc1)C(c1cccs1)N1CCOCC1 (configuration not stated)	-117%[inhibitor]	0%	-8%	3	9.7	-1.2%	-1
COc1cccc(/C=N/N2CCN(C)CC2)c1	-10%	0%	10%	22	6.6	-1.3%	4
O=C(COC(=O)CCc1ccccc1)Nc1ccc(F)cc1Cl	5%	12%	11%	15	-9.8	x	17
CC(C)(C)NC(=O)C1CN(S(=O)(=O)c2ccccc2)CCN1S(=O)(=O)c1ccccc1 (configuration not stated)	3%	-5%	3%	0	3.2	0.9%	-7
Cc1noc(/C=C/N(C)C)c1S(=O)(=O)N1CCCC(C(=O)Nc2ccc3c(c2)OCO3)C1 (configuration not stated)	-56%[inhibitor]	-13%	31%[activator]	11	-0.6	1.7%	-5
CCN(CC)C(=O)c1ccc(S(=O)(=O)N2CCC(c3nc4ccccc4s3)CC2)cc1	-37%	u	5%	8	2.6	1.4%	13
Cc1cc(NC(=O)C2CC(c3ccc(F)cc3)=NO2)no1 (configuration not stated)	16%	0%	1%	3	u	-1.8%	-4
O=S(=O)(Nc1cccc(Br)c1)c1cccc2nsnc12	2%[15.4 µM]	-6%	-1%	-23	1.7	-0.6%	15

Structural class: the compounds so far containing fluorine
SMILES	gsp ag	gsp antag	Sfp inh	CtBP-E1A blk	Menin MLL FP FL	ClpP mod	TRPV1 potentiator
CN(Cc1c(C(=O)N/N=C/c2cccc(F)c2)nnn1-c1nonc1N)c1ccccc1	-2%	6%	21%	x	-3.0	-2.0%	-3
COc1ccc(OCCOC(=O)CNC(=O)c2ccc(F)cc2)cc1	-20%	x	x	7	x	0.8%	x
O=C(COC(=O)CCc1ccccc1)Nc1ccc(F)cc1Cl	5%	12%	11%	15	-9.8	x	17
Cc1cc(NC(=O)C2CC(c3ccc(F)cc3)=NO2)no1 (configuration not stated)	16%	0%	1%	3	u	-1.8%	-4

Continued:
SMILES	gsp ag	gsp antag	Sfp inh	CtBP-E1A blk	Menin MLL FP FL	ClpP mod	TRPV1 potentiator
CCN1CCN(CCCNC(=O)Cn2nc(C)n3nc(-c4ccccc4)cc3c2=O)CC1	u	9%	12%	10	-1.5	-2.6%	-7
O=C(Nc1ccc(Cl)cn1)c1ccc2nccnc2c1	2%	1%	3%	-2	x	-0.5%	-7
COCCNC(=O)COc1ncnc2scc(-c3ccc(F)cc3)c12	5%	2%	7%	5	0.8	0.9%	8
CCOC(=O)C1=C(C)N(CCCCCC(=O)O)C(=O)NC1c1ccc([N+](=O)[O-])cc1 (configuration not stated)	2%	0%	-13%	-24	-2.4	-3.3%	-24
COc1ccc(-n2c(Cc3ccccc3)nnc2SCc2ccc([N+](=O)[O-])cc2)cc1	u	u	-15%	-11	1.1	0.9%	-5
O=C1C(c2ccncc2)N(CCC2=CCCCC2)C(=O)CN1C1CCCCC1 (configuration not stated)	5%	0%	3%	39	1.0	5.1%	-7
CC1CCCN(C(=O)COC(=O)COc2ccc(C#N)cc2)C1 (configuration not stated)	-25%	-12%	x	x	x	0.5%	x
CCc1cc(C(=O)OC)c(NC(=O)CSc2nccn2C)s1	4%[15.4 µM]	-2%	-11%	-2	x	-2.2%	1
CC(C)(C)n1nc2c(c1NC(=O)c1ccc(C(F)(F)F)cc1)CS(=O)(=O)C2	8%[15.4 µM]	4%	15%	0	x	-0.4%	-10
Cc1ccc(S(=O)(=O)N(C)CC(=O)N(CC(C)C)C2CCS(=O)(=O)C2)cc1 (configuration not stated)	-1%[15.4 µM]	1%	x	7	x	x	-1
CCc1ccccc1NC(=O)CN(C)C(=O)Cn1cnc2ccc(Cl)cc2c1=O	-49%[inhibitor]	2%	x	-11	x	-5.8%	0
CC(=O)Nc1ccc(S(=O)(=O)N/N=C/c2cccnc2)cc1	-20%	-2%	-2%	6	-1.4	0.3%	6
COc1ccc(C(=O)Oc2cc(N)n(S(=O)(=O)c3ccc(C)cc3)n2)cc1	-3%[15.4 µM]	-8%	-21%	-12	0.7	0.1%	3
C/C(=C\C(=O)c1ccc(F)cc1)NCc1ccc2c(c1)OCO2	-7%	u	-7%	0	5.7	-0.4%	-4
Cc1ccc(Nc2nc(-c3sc(NC(=O)c4ccccc4)nc3C)cs2)cc1	-5%	13%	1%	x	3.4	-0.5%	-13
COCCN1C(=O)c2ccccc2C(C(=O)NCCCN2CCCC2)C1c1c[nH]c2ccccc12 (configuration not stated)	-18%	10%	14%	-4	2.2	1.4%	-5
CCOC(=O)c1cnc2c(ccc3ccccc32)c1NCCO	-29%	10%	0%	-1	-2.3	28µM*	20
CN(CC(=O)Nc1ccc(Cl)cc1)CC(=O)Nc1cccc(Br)c1	-14%[15.4 µM]	-12%	12%	-1	1.2	x	20
Cc1cc(C)c(S(=O)(=O)N2CCN(C)CC2)c(C)c1	9%	6%	-12%	3	-3.6	-0.9%	13
O=C(c1ccco1)N1CCN(S(=O)(=O)c2ccc3c(c2)CCN3C(=O)C2CCC2)CC1	1%	u	11%	0	-0.7	-1.1%	9
CN(C)CCCn1c2c(c(SCC(=O)Nc3cccc4ccccc34)nc1=O)CCC2	24%[15.4 µM]	9%	x	-5	x	x	8

Assay outcomes (PubChem)
